# Screens deposited in PubChem by Broad Institute.
# Beta cell apopt = beta cell apoptosis inhibition; actives 0.8% (n = 300,000); protection from apoptosis, % (no concentration beside the values); INS-1E cytokine-induced death, ATP luminescence, 48 h; percent of positive-control rescue, neutral wells zero;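 active means all replicates at 75% or more, or half of them and the mean; inconclusive means half reach 75% but not the mean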;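 further: 0% = cytokine-treated negative control wells and 100% = positive control rescue; higher means more ATP so stronger rescue from cytokine killing; wells of about 40 µL received 100 nL stock; the first replicate is given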
# AF4-AF9 inh = blocks AF4 peptide binding to human AF9. P42568. AlphaScreen, biotin-AF4 peptide binding to FLAG-AF9. inhibition, % at 10 µM. actives 0.47% (n = 350,000). AID 651704;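 active means every replicate reaching a set inhibition limit, whatever the replicate mean, cut at about 25% in these data; inconclusive means mean inhibition reaches that limit but some replicates miss it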;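 further: 0% = plate neutral control median and 100% = total signal loss; the record names both 10 and 1 µM as test concentration; the first replicate is given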
# Target sequence (P42568 whole entry, looked up): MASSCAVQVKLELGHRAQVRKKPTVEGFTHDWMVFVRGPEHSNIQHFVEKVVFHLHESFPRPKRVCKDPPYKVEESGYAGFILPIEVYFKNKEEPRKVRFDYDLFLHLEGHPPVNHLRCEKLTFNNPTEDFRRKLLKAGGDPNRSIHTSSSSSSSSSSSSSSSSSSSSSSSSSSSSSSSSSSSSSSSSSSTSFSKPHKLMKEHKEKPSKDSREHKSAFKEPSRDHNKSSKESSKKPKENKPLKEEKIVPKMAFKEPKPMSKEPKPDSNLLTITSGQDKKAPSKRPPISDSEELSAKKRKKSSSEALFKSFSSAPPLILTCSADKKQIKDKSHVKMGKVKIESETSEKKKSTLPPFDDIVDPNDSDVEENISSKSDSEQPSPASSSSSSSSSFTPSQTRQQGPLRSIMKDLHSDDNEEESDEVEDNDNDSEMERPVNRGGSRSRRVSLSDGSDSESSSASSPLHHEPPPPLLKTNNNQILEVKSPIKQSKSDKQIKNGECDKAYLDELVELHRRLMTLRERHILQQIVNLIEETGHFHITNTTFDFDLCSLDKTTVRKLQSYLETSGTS
# ALR H2O2 inh = human ALR oxidase inhibition via reduced H2O2; P55789; AID 485317; purified ALR, DTT oxidation, H2O2 HRP-luminol luminescence; actives 3.8% (n = 290,000); inhibition, % (concentration not given with the values);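 active means mean and each replicate at 75% or more; inconclusive means only one of the two met; inactive means neither met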;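 further: stock transfer was 7.5 nL into about 7.5 µL; 0% = neutral wells and 100% = wells with inactivated enzyme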
# Target sequence (P55789 whole entry, looked up): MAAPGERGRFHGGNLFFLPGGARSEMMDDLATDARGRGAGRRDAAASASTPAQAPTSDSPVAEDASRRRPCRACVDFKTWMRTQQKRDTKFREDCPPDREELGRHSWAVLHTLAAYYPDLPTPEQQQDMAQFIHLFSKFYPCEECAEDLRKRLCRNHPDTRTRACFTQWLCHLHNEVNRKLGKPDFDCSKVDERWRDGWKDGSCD
# FGF22 binding = FGF22 (human) thermal shift binding; Q9HCT0; recombinant FGF22 thermal shift, SYPRO orange fluorescence; percent of sucrose octasulfate shift, DMSO zero; calls only at 9.99 µM; actives 1.5% (n = 340,000);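 active means melting point raised past a set limit in the mean and every replicate; inconclusive means no clear call; three in four hits are not shown here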
# Target sequence (Q9HCT0 whole entry, looked up): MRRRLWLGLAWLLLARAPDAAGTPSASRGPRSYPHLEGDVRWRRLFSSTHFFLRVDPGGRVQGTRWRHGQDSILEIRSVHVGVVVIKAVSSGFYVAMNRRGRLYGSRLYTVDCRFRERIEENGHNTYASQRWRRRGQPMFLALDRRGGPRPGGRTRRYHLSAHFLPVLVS
# RanGTP-Imp inh = inhibitors of RanGTP-importin-beta interaction, primary screen, biochemical, FRET, CFP-Ran, YFP-importin-beta, homogeneous. inhibition, % (test concentration not listed). cell-free CFP-Ran/YFP-importin-beta FRET ratio. actives 1.1% (n = 300,000);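 active means most replicates above 15%; inconclusive means exactly half above 15%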;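 further: 0% = DMSO wells and 100% = Ran loaded with GDP instead of GTP; wells of about 40 µL received 100 nL stock; the first replicate is given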
# Calb FLC = C. albicans growth modulation with fluconazole | C. albicans CaCi-2 (fluconazole-resistant clinical isolate) + fluconazole, Alamar Blue growth, 48 h | growth inhibition, % (test concentration not listed) | actives 0.57% (n = 300,000) | AID 1979;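 active means most replicates above 75%; inconclusive means exactly half above 75%; inactive means most below 75%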;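 further: all wells also contain fluconazole at 8 µg/ml as a sub-toxic cotreatment; 0% = median of DMSO wells and 100% = median of geldanamycin control wells; wells of about 8 µL received 7.5 nL stock; the first replicate is given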
# T cruzi repl = blocks replication of Trypanosoma cruzi. actives 1.4% (n = 300,000). inhibition, % (test concentration not listed). T. cruzi beta-gal in NIH3T3, luminescence, 90 h;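 active means mean inhibition across valid replicates above about 55%, limit read from the data; inconclusive means mean below that limit but half or more replicates reach it; inactive means mean below it, under half of replicates reach it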;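 further: signal also drops with host cell toxicity which is not excluded here; 0% = plate median of DMSO wells and 100% = zero luminescence signal; higher percent means less beta-gal luminescence so fewer parasites; stock transfer was 50 nL into about 50 µL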
# rRNA inh HTS = inhibits bacterial ribosomal RNA function over humanized ribosomes. E. coli WT GFP vs humanized-ribosome RFP mutants, fluorescence, 24 h; active compounds read low; DMSO median 0, no signal -100. GFP signal change (wild-type ribosome), % (test concentration not listed). actives 1.6% (n = 350,000). AID 720706;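 active means significant combined selectivity score with lowered wild-type GFP, culture density cut under 30%, mutant RFP and density less affected; inactive means any of these conditions unmet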; further: one replicate is shown; some compounds called inactive have numbers as strong as hits
# rRNA inh HTS OD600 = further read-out of rRNA inh HTS, marked with its call; OD600 change, %; measured here: OD600 growth;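 optical density of the mix in the first replicate; 0 = DMSO median and -100 = no signal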
# rRNA inh HTS RFP = second read-out of rRNA inh HTS, no call of its own (marks repeat the call); RFP signal change, %; measured here: RFP humanized mutant strains;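 first replicate; 0 = DMSO median and -100 = no signal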
# * marks the source's active call; other numbers are inactive results; i = inactive; u = inconclusive; x = no result given; + = active, no number. Some of the compounds tested. The share of hits here may be higher or lower than overall.
no.	mol	Beta cell apopt	AF4-AF9 inh	ALR H2O2 inh	FGF22 binding	RanGTP-Imp inh	Calb FLC	T cruzi repl	rRNA inh HTS	rRNA inh HTS OD600	rRNA inh HTS RFP
1	CCNC(=O)CC1C(=O)N(c2ccc(C)cc2)C(=O)N1Cc1ccccn1 (stereo not given)	-14	x	0	x	-2.3	-9	-6	x	x	x
2	Cc1occc1C(=O)NCc1ccc2c(c1)OCO2	-1	x	1	x	3.1	-4	-1	x	x	x
3	Cn1c(=O)c2c(SCC(=O)Nc3ccccc3F)nc(-c3ccccc3F)nc2n(C)c1=O	14	-5.0	1	i	1.1	-7	2	5	10	-0.6
4	CN(C)S(=O)(=O)c1ccc(N2CCCC2)c(C(=O)NC2(C)CCS(=O)(=O)C2)c1 (stereo not given)	-4	3.8	-1	i	-0.5	2	-13	11	14	0.4
5	COc1cc2c(cc1OC)C(c1ccco1)CC(=O)N2 (stereo not given)	-1	4.5	x	i	u	-8	-20	4	-3	1.9
6	O=C(NCc1ccccc1Cl)C1CCC(CNc2c(N3CCOCC3)c(=O)c2=O)CC1 (stereo not given)	-2	-2.7	-4	i	-1.8	-3	-4	8	-3	-1.3
7	CCOc1ccc2cc(C3CC(c4ccco4)=NN3S(C)(=O)=O)c(Cl)nc2c1 (stereo not given)	-1	7.3	-3	i	0.6	-8	-4	3	1	0.8
8	CCc1c(C)sc(NC(=S)N2CC(C)OC(C)C2)c1C(=O)OC (stereo not given)	-3	-2.4	-1	i	-0.2	9	x	1	7	3.6
9	O=C(CSc1cccc[n+]1[O-])Nc1cc([N+](=O)[O-])ccc1Cl	3	-0.8	x	i	-2.1	2	-9	1	3	-3.2
10	Cc1ccc(-c2cnc3c(Cl)c(C)nn3c2)cc1	5	0.0	x	i	-3.7	0	4	26	13	-0.7
11	COc1ccc(-n2nnnc2SCC(=O)Nc2ccccc2F)cc1	-4	2.8	-8	i	-1.4	-7	0	-2	4	0.1
12	CCOC(=O)N/N=C\C=C\c1ccco1	-7	-2.4	4	i	0.7	-3	5	5	5	1.5
13	COc1ccc(N(Cc2cc(=O)[nH]c3ccccc23)C(=O)c2ccco2)cc1	-6	x	-16	x	1.1	-13	-10	-2	-4	0.9
14	COc1ccc(Cl)cc1NC(=O)COC(=O)c1cc(C)oc1C	-1	1.4	1	i	x	x	x	7	9	-0.3
15	COc1ccccc1/C=C/C=N/NC(=O)c1ccc2nc[nH]c2c1	2	x	1	x	4.9	-2	-6	x	x	x
16	CCCn1nnc(NC(=O)Cc2ccc(Cl)cc2)n1	1	4.4	-15	i	-1.4	2	-11	7	2	-1.4
17	COc1cc(/C=N/NC(=O)c2[nH]nc3c2CCc2ccccc2-3)ccc1O	25	2.7	61	+	-4.9	-23	-17	-20*	-2.2*	-1.8*
18	Cc1ccc(CNC(=O)c2ccc(OCC(C)C)cc2)n1C	-2	u	-1	i	-0.7	12	-3	0	9	3.8
19	CCN(CC(=O)NCc1ccc(F)cc1)Cc1cc(=O)n2ccsc2n1	-5	-0.3	-1	i	-2.3	-14	5	0	-8	-0.6
20	Nn1c(COc2ccccc2)nc2ccccc2c1=O	4	x	-2	x	1.7	-5	-6	x	x	x
21	Cc1cc(Cl)ccc1OCC(=O)Nc1cccc(S(=O)(=O)NC2=NCCCCC2)c1	-2	-1.0	3	i	5.4	-5	7	-4	-29	1.1
22	COc1cc(OC)cc(C(=O)NCC(=O)OCC(=O)NC(C)CCc2ccccc2)c1 (stereo not given)	1	0.4	-5	i	x	x	x	0	-8	4.9
23	O=C(O)C1C2CCC(C2)C1C(=O)Nc1ccccc1 (stereo not given)	2	-3.8	2	i	0.2	-5	-3	17	2	11
24	COc1ccc(NC(=S)Nc2cc(-c3ccccc3)[nH]n2)cc1Cl	-1	x	-6	x	7.0	35	41	x	x	x

# Grouped by structure: the compounds so far containing two or more sulfur atoms.
no.	mol	Beta cell apopt	AF4-AF9 inh	ALR H2O2 inh	FGF22 binding	RanGTP-Imp inh	Calb FLC	T cruzi repl	rRNA inh HTS	rRNA inh HTS OD600	rRNA inh HTS RFP
4	CN(C)S(=O)(=O)c1ccc(N2CCCC2)c(C(=O)NC2(C)CCS(=O)(=O)C2)c1 (stereo not given)	-4	3.8	-1	i	-0.5	2	-13	11	14	0.4
8	CCc1c(C)sc(NC(=S)N2CC(C)OC(C)C2)c1C(=O)OC (stereo not given)	-3	-2.4	-1	i	-0.2	9	x	1	7	3.6

# (next part)
no.	mol	Beta cell apopt	AF4-AF9 inh	ALR H2O2 inh	FGF22 binding	RanGTP-Imp inh	Calb FLC	T cruzi repl	rRNA inh HTS	rRNA inh HTS OD600	rRNA inh HTS RFP
25	O=C(O)c1cc(NC(=O)C2CCCO2)cc(C(=O)O)c1 (stereo not given)	11	-3.3	-2	i	2.1	-6	9	7	13	3.6
26	Cc1ccc(S(=O)(=O)NCC(=O)N(CC(=O)NCc2ccco2)Cc2cccs2)cc1	2	-33	-9	i	4.5	26	14	6	4	-5.7
27	CCCS(=O)(=O)N1CCC(C(=O)NCc2ccc(F)cc2)CC1	x	x	0	x	3.5	4	-14	x	x	x
28	CCc1n[nH]c(=S)n1/N=C/C(C)=C\c1ccccc1	2	-1.4	8	i	4.7	4	-9	5	16	5.0
29	COc1ccc(NS(=O)(=O)c2cccc(C(=O)NCC(c3ccc(OC)cc3)N3CCCC3)c2)cc1 (stereo not given)	x	-23	x	i	5.4	3	-11	2	-3	2.8
30	O=C(c1ccccc1F)N1CCN(S(=O)(=O)c2ccc3ccccc3c2)CC1	-3	-7.7	-34	i	0.2	0	9	-16	-10	1.3
31	COc1cccc(-c2nc(N3CCN(C)CC3)c3ccccc3n2)c1O	21	20	40	i	0.2	-7	55*	-23*	-7.5*	4.5*
32	CC(=O)c1c(OC(=O)c2ccccc2Br)ccc2c(C)cc(=O)oc12	-8	x	5	x	2.6	-10	-19	x	x	x
33	COC(=O)C1=C(N)Oc2cc(C)n(Cc3cccnc3)c(=O)c2C1c1ccccc1OC (stereo not given)	2	x	-1	x	4.5	7	16	x	x	x
34	C[C@@H](O)Cc1cn(CC(=O)NCCCCCCCCCCC(=O)N2CCNCC2)nn1	1	1.1	-11	i	x	x	x	-2	-6	11
35	Cc1ccc(C2(C)NC(=O)N(CC(=O)NC(C)c3ccccc3)C2=O)cc1 (stereo not given)	-2	-1.3	-6	i	3.1	-3	-1	-1	8	-2.7
36	CCOc1ccc(NC(=O)Nc2ccccc2C(N)=O)cc1	-2	-0.4	-5	i	-4.0	-30	-27	11	3	3.1
37	CCOc1ncccc1C(=O)OCC(=O)c1c[nH]c2ccccc12	0	2.0	17	i	x	x	x	-11	-26	-1.8
38	CC1=NN(S(=O)(=O)c2ccc(C)cc2)C(=O)c2ccccc2O1	-7	-2.8	x	i	-3.9	6	1	-13	-6	-1.9
39	O=C(COc1ccccc1F)Nc1nnc(-c2ccncc2)s1	-6	x	-4	x	-2.7	46	-4	x	x	x
40	COc1ccc(C(=O)OCC(=O)NC(C)CCc2ccccc2)cc1OC (stereo not given)	-6	-2.3	-3	i	0.3	6	-11	0	1	2.8
41	CCOC(=O)N1CCc2c(sc(NC(=O)C3=COCCO3)c2C(N)=O)C1	6	-1.7	-3	i	3.2	-8	6	16	8	-3.4
42	CC(C)(C)C(=O)N1CCN(c2nc3ccc(Br)cc3s2)CC1	x	-0.8	-3	i	0.8	2	2	0	2	0.8
43	CC(/C=N/n1c(-c2ccc(C)cc2)n[nH]c1=S)=C\c1ccco1	-4	x	97*	x	-3.8	-2	-19	x	x	x
44	Cc1ccc(N2C(=O)CC(Sc3nccc(C)n3)C2=O)cc1 (stereo not given)	-1	-1.2	-1	i	u	30	1	-3	-8	-3.0
45	Cc1c(NC(=O)Cn2ccc([N+](=O)[O-])n2)c(=O)n(-c2ccccc2)n1C	x	x	-2	x	1.5	-7	-4	x	x	x
46	Cc1ccc(CC2SC(=Nc3ccccc3)N(c3ccccc3)C2=O)cc1 (stereo not given)	5	x	5	x	1.8	9	7	x	x	x
47	O=C1CC(N(Cc2ccco2)C(=O)Nc2ccc(F)cc2)C(=O)N1c1ccc(F)cc1 (stereo not given)	-1	x	-9	x	-0.6	-16	-12	x	x	x
48	CC(CN1CCCCC1)OC(=O)c1cccc(F)c1 (stereo not given)	-2	-1.1	16	i	1.3	9	-9	11	14	-0.3
49	COc1ccc(Cl)cc1NC(=O)c1nnn(CC(=O)Nc2ccc(OC)c(OC)c2)c1N	-4	0.7	-2	i	2.7	-3	4	11	22	34
50	COc1ccc(C(CNC(=O)Cc2ccc(-c3ccccc3)cc2)N(C)C)cc1 (stereo not given)	-10	3.9	-53	i	0.7	-15	37	-10	-11	5.3
51	CCN(CC(=O)Nc1ccccc1C(F)(F)F)C(=O)CSCc1ccc(C)cc1	-8	-0.5	-3	i	0.6	2	-16	-5	-4	1.4
52	Cc1ccc(S(=O)(=O)NC(N)=NCCc2ccccc2)cc1C	x	5.9	-1	i	-5.1	-2	-8	-10	-16	8.0
53	Cc1ccc(C)c(NC(=O)CN2C(=O)COc3ccc(S(=O)(=O)N4CCCC4)cc32)c1	-3	-1.6	-2	i	-1.0	-5	4	5	7	0.7
54	CCn1cc(C(=O)N2CCN(c3ccc(OC)cc3)CC2)c2cc(OC)c(OC)cc2c1=O	-2	-24	x	i	-2.2	8	2	4	7	21
55	COc1ccc(CC(=O)Nc2cccc(-c3nnc(-c4ccccc4)o3)c2)cc1OC	x	x	x	x	-0.8	6	6	17	7	-3.0
56	CCOc1cc2c(cc1OC)C(NC(=O)c1ccco1)CC2=O (stereo not given)	-3	-16	-22	i	3.0	-7	-20	9	-3	-6.0
57	COCc1cccc(N2C(=O)CC(C3C=C(C)C4C(=O)N(c5cccc(COC)c5)C(=O)C4C3)C2=O)c1 (stereo not given)	x	-13	-9	x	1.8	-5	6	-6	-8	2.4
58	OCCN(Cc1ccccc1)Cc1ccc(Cl)cc1	-7	-1.1	-4	i	2.7	-2	-18	-23*	-9.7*	0.4*
59	OC(COCc1ccccc1)CN1CCCCC1 (stereo not given)	-1	0.2	0	i	-2.0	-7	-2	0	8	-2.2
60	CCOC(=O)c1sc(NC(=O)COC(=O)CNC(=O)C2CCCCC2)c(C(=O)OCC)c1C	-3	x	-3	x	3.4	7	0	x	x	x
61	Cc1cc([N+](=O)[O-])nn1CC(=O)N1CCN(Cc2ccccc2)CC1	6	-0.8	-17	i	-0.4	3	12	16	12	-1.5
62	COc1ccc(NC(=O)C(=O)NCCN2CCN(C(=O)c3cccc(Br)c3)CC2)cc1	-3	-2.8	-8	i	-2.3	2	6	11	8	2.8
63	c1ccc(CCNC2=NCCS2)cc1	x	-2.2	2	i	-6.0	-2	52	14	14	1.2
64	Cn1c(C(=O)NC2CCCC2)cc2c(=O)n(C)c3ccccc3c21	2	-33	-2	i	2.6	-2	10	-13	-25	-4.1
65	O=C(COC(=O)c1cc2ccccc2oc1=O)Nc1cccc(S(=O)(=O)N2CCCCCC2)c1	2	x	-5	x	2.1	1	-5	x	x	x
